# Assay outcomes deposited in PubChem by PCMD.
# Calb biofilm kill – mixture kills Candida albicans biofilm cells | C. albicans biofilm persisters + clotrimazole, fluorescence viability; primary screen in compound mixtures of four per well | inhibition, % at 7.6 µM | 120,000 tested, 0.02% active | AID 1242;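 active means inhibition above 30.3% in the primary screen of four-compound pools, then above 30% when the compound was retested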;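 further: compounds exposed to preformed 24 h biofilms for 48 h; the number belongs to the whole pool; some results filed as inactive read as strong as hits; inactives centre near 12; 0% = biofilm with clotrimazole alone and 100% = kill control; retested singly at about 60 µM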
#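 Test system: C. albicans biofilms. Buffer or medium: RPMI/MOPS medium, pH 7.0. Timing: 48 h compound exposure at 37 °C. Technique: Alamar Blue fluorescence. Evaluation: percent inhibition of biofilm viability.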
# * = called active by the depositor.
SMILES,Calb biofilm kill
CCCNC(=O)C1CCN(S(=O)(=O)c2ccc(Br)cc2)CC1,20
COc1ccc(/C(C)=N/Nc2ncc(Cl)cc2Cl)c(O)c1,16
C/C=C\C(=O)Nc1cccc(C2=NOC3(C2)C[C@@H](C(N)=O)N(C(=O)c2ccc(Cl)cc2)C3)c1 (some centres undefined),20
O=C(O)/C=C/C(=O)NC1CCC(CC2CCC(NC(=O)/C=C/C(=O)O)CC2)CC1 (centres undefined),30
COc1ccc(C(=O)NC2CCCCCC2)cc1S(=O)(=O)N1CCCC1,18
CCOc1ccccc1CNCc1ccc(F)cc1,17
Cc1ccc(C2N=C(N)Nc3nc4ccccc4n32)cc1 (centres undefined),-1
CCOC(=O)N/N=C/c1ccc(OC)c(O)c1,19
Cc1onc(-c2c(Cl)cccc2Cl)c1CO/N=C(\C#N)c1c(Cl)cccc1Cl,7
Cc1cc2nnc(SCC(=O)Nc3cc(S(=O)(=O)N4CCOCC4)ccc3Cl)n2c2ccccc12,13
Cc1cc(C)c(C)c(S(=O)(=O)NNC(=O)c2cccc(S(=O)(=O)N3CCOCC3)c2)c1C,11
COCCn1c(SC2CCOC2=O)nc2ccccc2c1=O (centres undefined),4
CCOC(=O)N1CCC(N2Cc3cccc(C(=O)N4CCN(c5cccc(C)c5C)CC4)c3C2=O)CC1,6
CCOC(=O)c1cnn(Cc2cccc(Cl)c2)c1C,15
Cc1noc2ncnc(Oc3ccc(Cl)cc3Cl)c12,12
CC(=O)c1cc(-c2ccccc2)n(CC(=O)Nc2cccc(C)c2)c1C,5
COCCCn1cc(C(=O)c2ccccc2OCC(=O)Nc2cccc(F)c2)cc(C#N)c1=O,12
COc1ccccc1NC(=O)C1=C(C)NC(=O)NC1c1cccs1 (centres undefined),10
CN(c1ccc(OCC(=O)OCC(=O)Nc2ccccc2)cc1)S(=O)(=O)c1cccs1,7
O=C1CN(C(=O)CSc2nncs2)c2ccccc2N1,7
CCn1c(C(=O)N2CCCC(C(=O)O)C2)cc2sccc21 (centres undefined),-6
Cc1ccc(O)c(/C=N/NC(=O)C2=NNC(c3ccccc3)(c3ccccc3)C2)c1,6
O=C(NCc1ccc(-c2nc3ccccc3s2)cc1)c1ccco1,23
CCOc1ccc2[nH]c(=O)c(CN(CC3COCCO3)C(=O)c3ccc(C)cc3)cc2c1 (centres undefined),-2
CCC(=O)NC(c1ccco1)c1cc(Cl)c2cccnc2c1O (centres undefined),24

# Single entries from the list.
# Calb biofilm kill result of `Cc1cc2nnc(SCC(=O)Nc3cc(S(=O)(=O)N4CCOCC4)ccc3Cl)n2c2ccccc12` reads 13
# Calb biofilm kill result of `Cc1ccc(C2N=C(N)Nc3nc4ccccc4n32)cc1` (centres undefined) reads -1
# Calb biofilm kill result of `O=C(NCc1ccc(-c2nc3ccccc3s2)cc1)c1ccco1` reads 23
# Calb biofilm kill result of `O=C1CN(C(=O)CSc2nncs2)c2ccccc2N1` reads 7

# In another format: results already given
> Cc1ccc(O)c(/C=N/NC(=O)C2=NNC(c3ccccc3)(c3ccccc3)C2)c1
- Calb biofilm kill: 6
> O=C(NCc1ccc(-c2nc3ccccc3s2)cc1)c1ccco1
- Calb biofilm kill: 23
> CCOc1ccc2[nH]c(=O)c(CN(CC3COCCO3)C(=O)c3ccc(C)cc3)cc2c1 (centres undefined)
- Calb biofilm kill: -2
> CCC(=O)NC(c1ccco1)c1cc(Cl)c2cccnc2c1O (centres undefined)
- Calb biofilm kill: 24

# Remaining list, next part:
SMILES,Calb biofilm kill
CCCN1CN(Cc2ccccc2)CNC1=S,0
COc1cccc(N/C(SCc2cccc([N+](=O)[O-])c2)=C(/C#N)C(=O)NCc2cccs2)c1,5
Cc1cccc(NC(=O)NCCc2ccc(Cl)cc2)c1,-2
CCNC(=S)N/N=C(\C)c1cccc(OC)c1,12
COc1ccc(-c2cc(C(=O)Nc3c(Cl)cc(Cl)cc3Cl)c3ccccc3n2)cc1OC,14
S=C(Nc1ccccc1)N1CCOCCOCCN(C(=S)Nc2ccccc2)CCOCCOCC1,19
O=C(O)CCC(=O)N1N=C(c2ccc(Br)cc2)CC1c1cccs1 (centres undefined),7
CCN(CC)S(=O)(=O)c1cccc(-c2n[nH]c(=S)n2C(C)COC)c1 (centres undefined),14
Cc1ccc(C(=O)NCCc2nnc3ccc(SCC(=O)Nc4c(C)cc(C)cc4C)nn23)cc1,12
Cc1ccc(C=C2C(=O)c3ccccc3C2=O)o1,11
Cc1c(-n2cc(C(=O)O)c(=O)c3cc(F)c(N4CCCC(O)C4)c(F)c32)c(=O)n(-c2ccccc2)n1C (centres undefined),20
CCN(CC)c1ccc(/C=N/Nc2ccc(C)cc2)c(O)c1,8
CC(C)c1cc(C(=O)N/N=C/c2c[nH]c3ccccc23)n[nH]1,22
NC(=O)COC(=O)c1cc(S(=O)(=O)N2CCN(c3ccccc3)CC2)ccc1Cl,5
Cc1ccc(NC(=O)COC(=O)c2cccc3c2C(=O)c2ccccc2C3=O)c(C)c1,15
COc1ccccc1NC(=S)NCc1ccccn1,14
Fc1ccc(Nc2nnc(C(F)(F)F)s2)cc1Cl,23
Cc1ccc(NC(=O)NNC(=O)c2snnc2C)cc1,13
C#CCOCCOCCOCCNc1nc(N2CCN(C(=O)[C@H](CCC(=O)O)n3cc(C(N)Cc4ccc(O)cc4)nn3)CC2)nc(N2CCN(C(=O)[C@H](CCC(=O)O)n3cc(C(N)CC(C)C)nn3)CC2)n1 (some centres undefined),16
Cc1ccc(-c2noc(=O)n2CC(=O)c2ccc(Cl)cc2)cc1,8
O=C(NCc1ccccn1)c1cccc(NS(=O)(=O)c2ccccc2F)c1,12
COCCNC(=S)NCc1cccs1,-1
COc1ccc2nccc(C(N)=O)c2c1,21
CCOC(=O)c1sc(NC(=S)NC(=O)C2CC2)cc1C,17
COC(=O)c1cn(C(=O)c2ccccc2Cl)c2ccccc12,18

# The list goes on.
SMILES,Calb biofilm kill
CC(=O)c1c(C)nc(-c2ccc(OCC(=O)Nc3ccccc3)cc2)n1O,13
Cc1cc(Br)c(Cl)cc1NC(=O)CN1C(=O)C2C3CC(c4ccccc4)C(C3)C2C1=O (centres undefined),3
O=C1C2CC=CCC2C(=O)N1c1ccc(NCCc2ccc(Cl)cc2)c([N+](=O)[O-])c1 (centres undefined),-1
CCO[C@@H]1OC(C(=O)O)=C[C@H](c2csc3ccccc23)[C@H]1CCCO,18
CCC(N)C12CC3CC(CC(O)(C3)C1)C2 (centres undefined),14
Nc1c(-c2ccccc2)c(CSc2nc3ccccc3[nH]2)nn1-c1ccc(C(=O)O)cc1,10
Cc1cccc(C)c1NC(=S)N(C)CCc1ccccn1,10
O=C1CN(c2ccc(Cl)cc2)C2(CCCCC2)S1,7
Cc1cc(S(=O)(=O)NCC(C)C)ccc1OCC(=O)NCC1CCCO1 (centres undefined),16
NC(CC(=O)O)c1ccc(Br)cc1 (centres undefined),9
CC(C)CCOc1ccc(C2CC(=O)N(C)C2=O)cc1 (centres undefined),6
COC(=O)c1nn(-c2ccc(C)cc2)c2nnc(Cc3ccccc3)c(=O)n12,12
O=C(O)CNc1nc(-c2ccccc2)c2cc([N+](=O)[O-])ccc2n1,11
Nc1[nH]nc2nc3ccccc3cc12,25
Cc1ccc(-c2nn(-c3cccc(F)c3)cc2CN(Cc2nccn2C)C(C)C)o1,17
CCCCOc1ccc(/C(O)=C2/C(=O)C(=O)N(Cc3cccnc3)C2c2ccncc2)c(C)c1 (centres undefined),14
Cc1cc(C)c2c(n1)sc1c(-c3ccccc3)c(C#N)c(N)nc12,6
NC(=O)c1nnn(-c2cccc(C(F)(F)F)c2)c1-c1ccccc1,-8
CCC1(c2ccc(Cl)cc2)NC(=O)N(Cc2ccc(C(=O)OC)cc2)C1=O (centres undefined),15
COc1ccc(S(=O)(=O)Nc2cc(C(=O)NCCCOC(C)C)ccc2N2CCOCC2)cc1,1
Cc1ccc(CNC(=O)CCC2CCCN(Cc3cccc4ncccc34)C2)o1 (centres undefined),12
Cc1cccc(C)c1OCCNC(=O)C(=O)NCc1ccco1,5
CCOc1cc(NC(=S)NCCCN2CCOCC2)c(OCC)cc1NC(=O)C(C)C,20
Cc1ccc(-n2nnnc2SCC(=O)Nc2sccc2C#N)cc1,16
CSc1nc(C)nc(N/C=C(\C#N)S(=O)(=O)c2ccccc2Cl)n1,9

# Additional entries follow:
SMILES,Calb biofilm kill
O=C(C[n+]1ccccc1)Nc1c(Cl)cc(Cl)cc1Cl,-1
O=C(NCc1ccccn1)c1cccc(NS(=O)(=O)c2cccc(F)c2)c1,9
O=C1OC(Nc2ccc(F)c([N+](=O)[O-])c2)c2ccccc21 (centres undefined),13
CCOc1cc(CN2CCN(CCc3ccccc3)C(CCO)C2)ccc1OC (centres undefined),17
Cc1ccc(NC(=O)c2cc(S(=O)(=O)NCCC3=CCCCC3)ccc2F)cc1F,-7
O=C(/C=C\Nc1ccc(S(=O)(=O)Nc2ncccn2)cc1)c1cccc2ccccc12,14
Cc1cc(C(=O)CSc2ncccn2)c(C)n1Cc1ccco1,3
O=C(CS(=O)CC(=O)N(c1cccc(F)c1)C(C(=O)NC1CCCCC1)c1ccco1)Nc1ccc(F)cc1 (centres undefined),12
CCOc1ccc2nc(N(CCN(CC)CC)C(=O)c3ccc([N+](=O)[O-])cc3)sc2c1,-8
O=C(CNc1ccc2c(c1)OCO2)N/N=C\c1ccccc1Cl,12
COC(=O)CCC/C=C1/SCC(NC(=O)c2ccccc2)C1NC(C)=O (centres undefined),5
COc1ccc(N2C(=O)C3CCCCC3C2=O)cc1NC(=O)c1ccccc1 (centres undefined),8
CC(Cc1ccccc1)NC(=S)CN1CCCC1=S (centres undefined),20
Nc1nc(SCC(=O)Nc2ccccc2)nc2nc3c(cc12)CCCC3,-7
Cc1cccc(NNC(N)=S)c1,1
CC(C)N1CN=C(Nc2nc3ccccc3o2)NC1,3
O=C(CSc1nc2c(sc3ccccc32)c(=O)n1CCCN1CCCC1)NCc1ccco1,9
NC(=O)COc1ccc(C23CC4CC(CC(C4)C2)C3)cc1,5
CCN(CC)C(=O)CC(c1cc(OC)c(OC)c(OC)c1)c1c(O)cc(OC)cc1OC (centres undefined),7
Cc1ccc(-c2nc(-c3ccccn3)no2)cc1[N+](=O)[O-],12
CC(C)C1COC(c2cccc3ccccc23)=N1 (centres undefined),3
COCCn1c(N)c(N(Cc2ccccc2)C(=O)c2cc3ccccc3o2)c(=O)[nH]c1=O,-8
COc1ccc(-c2nc3c4ccccc4ccn3c2CN2CCOCC2)cc1OC,24
COc1ccc(CNC(=O)c2cccnc2SC)cc1OC,3
CCCCN(CC)C(=O)c1ccccc1Oc1ccccc1,10

# Three structures out of the list, ordered by SMILES length, highest first:
SMILES,Calb biofilm kill
COC(=O)CCC/C=C1/SCC(NC(=O)c2ccccc2)C1NC(C)=O (centres undefined),5
O=C1OC(Nc2ccc(F)c([N+](=O)[O-])c2)c2ccccc21 (centres undefined),13
CC(C)C1COC(c2cccc3ccccc23)=N1 (centres undefined),3

# The list continues:
SMILES,Calb biofilm kill
Cc1ccccc1C(=O)OC1OC(=O)C(Cl)=C1Nc1ccccc1 (centres undefined),10
Cn1c(NC(=O)/C=C/c2ccccc2)cc(=O)n(C)c1=O,15
O=C(NC1=NCCS1)c1sc2cc(F)ccc2c1Cl,19
Cc1cc(-c2csc(NC(=O)c3ccc(=O)[nH]c3)n2)c(C)n1Cc1ccccc1,13
Nc1c(C(=O)N/N=C/c2ccc([N+](=O)[O-])cc2)sc2nnc(-c3ccccc3)c(-c3ccccc3)c12,29
Cc1ccn(C)c(=N)c1,16
CCOC(=O)C1CCN(c2ncnc3cc(OC)c(OC)cc23)CC1,10
CNS(=O)(=O)c1cccc(C(=O)OCc2cc(C(C)=O)ccc2OC)c1,3
CCCCNC(=S)Nc1cccc(C(C)=O)c1,7
COC(=O)Cc1ccc(NC(=S)NCc2ccc(Cl)cc2)cc1,18
Cc1cc(N2CCN(Cc3cn(C)nc3-c3ccccc3F)CC2)cc(C)n1,24
COc1ccc(Cc2noc(CN(C)CC3CCN(Cc4ccccc4)CC3)n2)cc1OC,34
Cc1nc(C(=O)NNC(=O)c2ccccc2)c(C(F)(F)F)o1,22
CCn1c2ccccc2c2cc(/C=N/NC(=O)c3cc(O)cc(O)c3)ccc21,8
Cc1c(NC(=O)CSc2nnc(Nc3ccccc3)s2)c(=O)n(-c2ccccc2)n1C,16
COc1ccc2c(c1)CC/C2=N\OC(=O)c1cccc(C)c1,14
CC(=O)CCc1oc2ccccc2c1-c1ccccc1,19
COc1cc(NC(=O)COC(=O)CC(C)(C)C)c(C)cc1[N+](=O)[O-],16
O=C(CNCc1ccccc1)Nc1ccccc1-c1ccccc1,11
Cc1oc(-c2cccs2)nc1CS(=O)CC(=O)NCc1ccc2c(c1)OCO2 (centres undefined),15
COCc1cc(=O)[nH]c(SC)n1,16
O=C(COc1ccccc1[N+](=O)[O-])Nc1ccc(CN2CCOCC2)cc1,15
Cc1ccc(C(=O)N/C(=C\c2ccc3c(c2)OCO3)C(=O)Nc2ccc(C(=O)O)cc2)cc1,11
CC(=O)Nc1nc(C(=O)O)cs1,5
Nc1cccc([N+](=O)[O-])c1,3
Cc1cccc(N2CCN(C(=O)c3ccccn3)CC2C)c1 (centres undefined),0
Cc1ccc(-n2cccn2)c(CN2CCC(CO)(CCc3ccccc3)CC2)c1,18
O=c1/c(=C\c2ccc(F)cc2)sc2n1CCCN=2,9
Cc1ccc(NC2CC(=O)N(c3cccc([N+](=O)[O-])c3)C2=O)cc1 (centres undefined),11
S=C(NCC1CCCO1)N1CCN(Cc2ccccc2Cl)CC1 (centres undefined),-29

# 4 entries from above, set out differently:
molecule: S=C(Nc1ccccc1)N1CCOCCOCCN(C(=S)Nc2ccccc2)CCOCCOCC1
  Calb biofilm kill: 19
molecule: O=C(O)CCC(=O)N1N=C(c2ccc(Br)cc2)CC1c1cccs1 (centres undefined)
  Calb biofilm kill: 7
molecule: CCN(CC)S(=O)(=O)c1cccc(-c2n[nH]c(=S)n2C(C)COC)c1 (centres undefined)
  Calb biofilm kill: 14
molecule: Cc1ccc(C(=O)NCCc2nnc3ccc(SCC(=O)Nc4c(C)cc(C)cc4C)nn23)cc1
  Calb biofilm kill: 12

# Some of the compounds tested; the hit share may differ from the screen's.
